KCNQ2 pot: potentiators of rat KCNQ2 potassium channel. O88943. CHO-K1 KCNQ2, FluxOR thallium flux fluorescence; hits give high values. B-score at 10 µM. 0.54% of 310,000 active;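 active = fluorescence ratio B-score at least 3 SD of library B-scores, with initial fluorescence B-score within 3 SD, cut at about 5.3 in these data; same plate scores as AID 2156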;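 note: B-score of peak minus minimum over baseline fluorescence ratio after K+ and Tl+ stimulus; positive B-score means potentiation of KCNQ2 with more thallium influx and brighter signal; only the inactives scoring about 0 or higher are listed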
Target sequence (O88943 whole entry, looked up): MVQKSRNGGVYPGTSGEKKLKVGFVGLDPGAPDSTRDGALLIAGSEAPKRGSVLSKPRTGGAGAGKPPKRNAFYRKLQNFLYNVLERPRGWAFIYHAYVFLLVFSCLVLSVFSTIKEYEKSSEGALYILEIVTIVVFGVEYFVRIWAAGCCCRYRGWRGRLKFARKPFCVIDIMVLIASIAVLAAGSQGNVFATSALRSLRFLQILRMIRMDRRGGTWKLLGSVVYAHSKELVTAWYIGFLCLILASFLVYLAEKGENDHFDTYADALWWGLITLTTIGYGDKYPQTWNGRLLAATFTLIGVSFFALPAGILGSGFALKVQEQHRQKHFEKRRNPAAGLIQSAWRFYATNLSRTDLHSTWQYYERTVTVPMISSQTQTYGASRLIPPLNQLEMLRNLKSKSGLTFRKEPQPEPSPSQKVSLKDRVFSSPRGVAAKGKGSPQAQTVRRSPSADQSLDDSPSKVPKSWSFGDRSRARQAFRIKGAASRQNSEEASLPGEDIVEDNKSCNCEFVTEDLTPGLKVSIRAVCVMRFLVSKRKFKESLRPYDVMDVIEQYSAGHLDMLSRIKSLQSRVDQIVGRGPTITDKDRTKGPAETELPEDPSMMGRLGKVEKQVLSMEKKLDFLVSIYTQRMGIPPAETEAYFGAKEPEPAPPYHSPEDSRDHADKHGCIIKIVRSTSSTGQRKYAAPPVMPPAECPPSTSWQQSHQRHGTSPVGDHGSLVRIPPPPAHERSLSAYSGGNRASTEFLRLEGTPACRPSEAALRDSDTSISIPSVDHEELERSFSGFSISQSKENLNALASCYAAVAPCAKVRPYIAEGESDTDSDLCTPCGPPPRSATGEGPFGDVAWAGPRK
KCNQ2 pot baseline: recorded beside KCNQ2 pot, whose call it bears; B-score; compound at 10 µM; measured here: initial fluorescence intensity artifact check;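 brightness before thallium and not channel activity; 0 = typical well and far values either way flag optical interference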
Starred values were filed as active, the others as inactive. Not all compounds are listed; rates above refer to the full screens.

entry	smiles	KCNQ2 pot	KCNQ2 pot baseline
1	Cc1ccc(C)c(NC(=O)CCn2nc(C)cc2C)c1	0.41	-0.49
2	COc1ccc(C)cc1N(CC(=O)N/N=C/c1ccccc1C(=O)O)S(=O)(=O)c1ccccc1	3.03	4.37
3	O=c1c2[nH]c3ccc(F)cc3c2ncn1CCCN1CCOCC1	0.53	2.06
4	COc1ccc(CN2CCC(CO)(Cc3ccccc3)CC2)cc1Cn1cccn1	1.45	-1.29
5	CCOC(=O)N1CCC(NC(=O)c2cc3c(C)nc4ccccc4c3o2)CC1	0.59	-0.47
6	COc1cc(C(=O)N(CCCO)Cc2cc3ccc(C)c(C)c3[nH]c2=O)cc(OC)c1OC	1.07	-0.5
7	COCCn1c(-c2cccs2)nc2nc3ccccc3nc21	0.6	-0.94
8	O=C(Oc1cccc(NC2=NS(=O)(=O)c3ccccc32)c1)c1cccnc1	0.3	-0.56
9	O=c1[nH]c2ccc(F)cc2[nH]c1=O	0.76	-1.38
10	CCOc1ccccc1NC(=O)C1Cc2ccccc2CN1S(C)(=O)=O (configuration not stated)	0.07	-0.4
11	CC(=O)c1sc(N/N=C\c2ccc(Br)cc2)nc1C	0.53	-2.2
12	CN1C(C(=O)NCc2ccco2)CC2Cn3c(nc4cc5ccccc5cc43)C21 (configuration not stated)	1.56	-1.6
13	CCc1ccc(NC(=O)C2CCN(c3ncnc4c3nc3n4CCCCC3)CC2)cc1	0.22	0.76
14	CCCCc1nc2ccccc2c(NC(=O)CNC(C)(C)C)c1CCC	3.2	-2.92
15	CCOc1cccc2cc(C(=O)NCc3ccc(OC)cc3)c(=N)oc12	0.21	-0.47
16	CC(C)CC(=O)N=C1SC2CS(=O)(=O)CC2N1CCc1ccccc1 (configuration not stated)	0.85	0.02
17	Cc1cc(Oc2cc(N)cc([N+](=O)[O-])c2)ccc1Cl	0.24	0.54
18	Fc1ccc(-c2csc(-c3ccccn3)n2)cc1F	0.41	-1.26
19	CCOC(=O)Cc1csc(NC(=O)NC2(C(F)(F)F)Oc3cc(Cl)c(Cl)cc3O2)n1	1.08	0
20	O=C(COC(=O)/C=C/c1cccc(Cl)c1)NCCc1ccc(Cl)cc1Cl	0.65	2.06
21	O=C(Nc1ccc(S(=O)(=O)Nc2nccs2)cc1)c1ccc(N2C(=O)c3ccccc3C2=O)cc1	0.03	1.52
22	Cc1ccc(C(=O)NCC(C)(C)O)cc1	0.7	1.75
23	CCOc1cccc(OCCNC2CCCC2)c1	0.62	0.01
24	COc1cccc(N2CC(O)=C(c3nc4ccccc4c(=O)[nH]3)C2=N)c1	0.17	0.29
25	Cc1c(O)c(=O)c2ccccc2n1C	0.07	-1.46
26	CCCCN(CC)C(=O)c1cccc(Cl)c1	1.71	-1.39
27	CCOc1ccccc1NC(=O)CN(c1ccc(Cl)cc1)S(C)(=O)=O	0.61	-0.93
28	CCOC(=O)c1cc2c(ccn2C)n1CC(=O)N1CCCC(C)C1 (configuration not stated)	1.26	0.87
29	CCOC(=O)C1CCCN(C2CC(=O)N(c3ccc(N4C(=O)CC(N5CCCC(C(=O)OCC)C5)C4=O)cc3)C2=O)C1 (configuration not stated)	0.53	0.38
30	C/C(=N\NC(=O)c1ccccc1C)c1cccc([N+](=O)[O-])c1	0.02	0.76
31	O=C(NC1CCCC1)C(c1cccnc1)N(C(=O)c1csnn1)c1ccc(F)cc1 (configuration not stated)	2.01	-0.03
32	CC(C)n1c(-c2ccncc2)n[nH]c1=S	0.02	0.03
33	O=C(NC(=S)NCc1ccc(-c2nc3ccccc3s2)cc1)c1ccco1	0.1	0.4
34	CCOc1cc(C(=O)NCCc2ccc(S(N)(=O)=O)cc2)cc(OCC)c1OCC	0.02	4.31
35	S=C(Nc1ccccc1)N1CCOCC1	2.5	-1.18
36	Cn1c(NN)nc2ccccc2c1=O	0.47	-0.53
37	NC(=O)c1ccsc1NC(=O)COC(=O)c1cc(Cl)ccc1O	2	-1.01
38	CCOc1ccc(N(CC(=O)NN=C2CCN(C)CC2)S(=O)(=O)c2ccc(Br)cc2)cc1	0.82	-3.36
39	CNC(=S)n1cnc(N)n1	0.14	-1.08
40	CC(=O)N(c1ccccc1)c1nc(C)cc(C)c1C#N	0.55	-0.74
41	Cc1ccc(-c2c(C(=O)N3CCOCC3)oc(=O)c3ccccc23)cc1	0.6	-1.13
42	O=C(COC(=O)c1ccc2[nH]c3c(c2c1)CCCC3)NC1CCS(=O)(=O)C1 (configuration not stated)	0.4	0.97
43	COc1ccccc1N1CC(C(=O)Nc2cc(C(F)(F)F)ccc2N2CCCC2)CC1=O (configuration not stated)	0.01	-0.64
44	Nc1cccc2c1C(=O)N(Cc1nnc(-c3ccccc3Br)o1)C2=O	1.98	0.33
45	CCCc1cc(=O)oc2cc(C)cc(OCC(=O)NC(Cc3ccc(Cl)cc3)C(=O)O)c12 (configuration not stated)	0.33	0.77
46	Nc1nnc(CSCc2ccc(Cl)cc2Cl)s1	1.16	-0.47
47	CN(C)CCCNc1ncnc2scc(-c3ccccc3)c12	2.82	-2.32
48	CCOC(=O)c1ccc(N2C(=O)C=C(N3CCOCC3)C2=O)cc1	1.29	-0.03
49	Cc1cc(C)nc(-n2nc(C)cc2NC(=O)CN2CCC(C)CC2)n1	0.84	-2.48
50	COc1ccc(-c2noc(CCC(=O)Nc3nc4ccccc4s3)n2)cc1	0.49	-0.53
51	C/C(=N\NC(=O)CN1CCCCC1)c1cccc([N+](=O)[O-])c1	0.04	-0.21
52	CN1C(=O)CC(Sc2ccccc2C(=O)O)C1=O (configuration not stated)	1.74	-0.69
53	Cc1ccc(CNC(=O)C2CCN(S(=O)(=O)N3CCOCC3)CC2)cc1	1.37	-1.53
54	COc1cc(-c2noc(-c3cccs3)n2)cc(OC)c1OC	0.86	-0.01
55	COc1ccc(C(=O)NCCc2c[nH]c3ccccc23)cc1OC	1.21	0.53
56	CS(=O)(=O)Nc1ccc(C(=O)Nc2ccc3c(c2)OCO3)cc1	1.34	-0.27

Next section.
entry	smiles	KCNQ2 pot	KCNQ2 pot baseline
57	COc1ccc(C(=O)c2cc3cccc(OC)c3o2)cc1	1.19	0.59
58	O=C(CN1CCN(c2ncc(C(F)(F)F)cc2Cl)CC1)NCCNc1ncc(C(F)(F)F)cc1Cl	0.69	-2.24
59	C/C(=N\NC(=O)c1cccc(F)c1)c1ccc(Br)s1	0.1	0.7
60	Cc1nc(-c2ccc(C(=O)O)cc2)cs1	1.17	0.84
61	COc1ccc(NC(=S)N2CCCC2c2ccc(OC)c(OC)c2)cc1 (configuration not stated)	0.27	-3.13
62	Cc1csc(=O)n1CCC(=O)OCC(=O)Nc1ccc(C(N)=O)cc1	1.66	-0.51
63	CCCCNC(=S)N(CCCO)Cc1cc2cc3c(cc2[nH]c1=O)OCCO3	0.3	-0.47
64	CCOc1cccc(CN2CCN(CCc3ccccc3)C(CCO)C2)c1O (configuration not stated)	1.23	-1.16
65	CCOCCCNC(=O)C(NC(=O)c1ccc(=O)[nH]c1)c1ccccc1 (configuration not stated)	0.43	-0.93
66	Cc1cc(C)n(-c2nnc3n2N=C(c2ccccc2)CS3)n1	1.2	-1.65
67	N#Cc1nc(-c2ccccc2F)oc1NCCN1CCOCC1	0.67	1.87
68	O=C1NCCCCC1NS(=O)(=O)c1cccc(C(F)(F)F)c1 (configuration not stated)	0.54	-0.24
69	CN(C)c1ccc(/C=N/NC(=O)CNC(=O)c2ccc3c(c2)OCCO3)cc1	0.38	-0.11
70	CCOc1ccc(NS(=O)(=O)c2ccc3c(c2)n(C)c(=O)n3C)cc1	0.01	-0.02
71	Cn1ccnc1SCC(=O)Nc1cccc(S(=O)(=O)N2CCCCCC2)c1	0.2	0.01
72	O=C(Nc1cccc(NC(=O)c2ccccc2Cl)c1)c1ccc([N+](=O)[O-])o1	0.75	0
73	COc1ccc(OCc2nnc(SCC(=O)Nc3nnc(C4CC4)s3)n2C)cc1	0.07	1.29
74	O=C(NCC(=O)N(c1ccc(F)cc1)C(C(=O)NC1CCCCC1)c1ccncc1)c1ccco1 (configuration not stated)	0.33	1.43
75	OCCOc1ccc(CN2CCCC(N3CCN(c4ccc(F)cc4)CC3)C2)cc1 (configuration not stated)	0.56	-0.21
76	CCn1c(-c2ccccc2)c(C(=O)CC#N)c2ccccc21	0.95	0.82
77	CCOC(=O)c1ccccc1-c1cn2cc(Cl)ccc2n1	0.07	0.02
78	COc1ccc(/C=C\C(=O)c2c(O)ccc3c(C)cc(=O)oc23)cc1OC	1.57	-1.7
79	O=C(CN1CCN(Cc2ccccc2)CC1)N=Nc1c(O)[nH]c2ccccc12	0.24	1.74
80	CCOC(=O)c1oc2cccc(O)c2c1CN1CCOCC1	2.29	-0.3
81	CC(=O)C[C@H]1c2cc(C(F)(F)F)ccc2S(=O)(=O)N1Cc1ccccc1	2.07	-0.71
82	O=C(COC(=O)c1n[nH]c2ccccc12)c1ccc(F)c(F)c1	1.56	0.22
83	Cc1ccc(OCCNC(=O)CNC(=O)c2ccc(C)c(C)c2)cc1	1.19	-1.17
84	CCC(C)[C@H](NS(=O)(=O)c1ccc(C)cc1)C(=O)N1CCC(C(=O)N2CCC(C(=O)OC)CC2)CC1 (some centres not stated)	0.31	1.39
85	CC(C)[C@@H](N)C(=O)NCC1CCC(C(=O)N[C@@H](Cc2ccccc2)C(=O)O)CC1 (some centres not stated)	0.09	0.43
86	Cn1c(=O)n(C/C=C/c2ccccc2)c(=O)c2c1nc1n2CCCN1c1ccc(F)cc1	0.47	-0.92
87	CCCCN(CC)CCNC(=O)c1nn(-c2ccc(OC)cc2)c(=O)c2c1c1ccccc1n2C	0.02	-0.09
88	COC(=O)c1sc(NC(=O)COc2ccc(C)cc2)nc1C	1.47	-0.41
89	COc1ccc(OC)c(NC(=O)c2oc3ccccc3c2NC(=O)C2CC2)c1	0.66	-0.11
90	O=C(CC1CCCC1)Nc1cccc(Br)c1	1.68	-1.13
91	NS(=O)(=O)c1ccccc1NC(=S)Nc1ccccc1S(N)(=O)=O	0.21	0.02
92	COc1ccc2cc(C(=O)NCC(=O)O)sc(=O)c2c1OC	1.28	1.03
93	O=C(c1ccco1)N1CCN(Cc2cccc3ccccc23)CC1	0.19	1.54
94	CN(Cc1nc(-c2ccc(C(F)(F)F)cc2)no1)C1CCOCC1	0.14	0.28
95	O=C(O)c1cccnc1SCc1cccc(Cl)c1	0.13	1.08
96	COc1ccc(C(C)NC(=O)C23CC4CC(CC(C4)C2)C3)cc1OC (configuration not stated)	2.16	0.37
97	COc1ccc(NC(=S)Nc2ccc(S(=O)(=O)N3CCOCC3)cc2)c(OC)c1	2.58	-1.07
98	O=C(Cc1ccc(S(=O)(=O)N2CCOCC2)s1)N(Cc1ccccc1)c1ccccc1	0.09	-0.02
99	O=C(/C=C/c1ccco1)N1CCN(c2ccccc2)CC1	1.06	-0.8
100	N#Cc1nc(-c2ccc(OCc3ccccc3)cc2)oc1NCCCN1CCOCC1	0.01	1.33
101	O=C(NN=C1CCCC1)c1cc(-c2ccc(F)cc2)nc2ccccc12	0.06	0.92
102	O=C(Cc1ccccc1Cl)NCCCn1ccnc1	0.02	0.69
103	CSc1nc2c(cc1C#N)CCC2	0.23	-1.32
104	C/C(=N/NC(=O)c1cc(C)[nH]n1)c1ccco1	0.04	-0.01
105	O=C(CN1C(=O)S/C(=C\C=C\c2ccccc2)C1=O)Nc1ccccc1C(=O)O	1.71	0.05
106	CCO[C@@H]1OC(C(=O)N2CCOCC2)=C[C@H](C2CC2)[C@H]1CCCO	0.23	-0.3
107	Cc1ccc(C(=O)N/C(=C\c2ccc(-c3ccccc3[N+](=O)[O-])o2)C(=O)NCCCN(C)C)cc1	0.28	-0.02
108	C[C@H](C(O)c1ccccc1)N(C)C(=O)CN (some centres not stated)	1.09	0.63
109	CC(=O)Nc1ccc(NC(=O)Cn2c(=O)n(-c3ccc(C)cc3)c(=O)c3oc4ccccc4c32)cc1	0.69	1.04
110	COC(=O)CCc1nc2c(C#N)c(-c3ccc(Cl)cc3)ccn2n1	0.83	0.52
111	CC(NC(=O)c1ccco1)C(=O)N1CCCCC1 (configuration not stated)	0.94	0.05
112	O=C(Oc1ccc(Cl)c2cccnc12)c1cccnc1	1.82	0.57

Later entries
entry	smiles	KCNQ2 pot	KCNQ2 pot baseline
113	CCOC(=O)N1CCN(C(=O)c2cn(CC)c3ccc(S(=O)(=O)N4CCOCC4)cc3c2=O)CC1	0.26	-0.49
114	C=CCN(CC=C)Cc1c(C)[nH]c2c(C)c(C)ccc2c1=O	1.82	0.02
115	COc1ccc(OCc2nnc(SCC(=O)NC3CC4CCC3C4)o2)cc1 (configuration not stated)	1.48	0.11
116	CCOc1ncccc1C(=O)OCC(=O)NCc1ccc2c(c1)OCO2	0.1	-1.65
117	CC(NC(=O)c1cccc(S(=O)(=O)N(C)C)c1)c1nc2ccccc2[nH]1 (configuration not stated)	0.04	-0.41
118	CC(=O)Nc1ccc(OC(F)(F)Cl)cc1	1.43	0.01

From PubChem
